# Screens deposited in PubChem by Center for Chemical Genomics, University of Michigan.
# CDC25B-CDK2 inh = primary biochemical HTRF screen for blockers of M-phase inducer phosphatase 2 binding to CDK2/cyclin A. P30305+P24941. HTRF CDC25B-CDK2/CyclinA binding, anti-His/anti-Flag; stronger effect = higher value. z-score (no concentration beside the values). hit rate 0.72% among 94,000. AID 1259370, 2018;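 also: score is relative to mean and SD of negative controls; strong numbers were not always called active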
# TAR Tat displ = TAR RNA-Tat peptide displacers, HIV-1, primary screen, biochemical, FRET, FAM/TAMRA-labeled Tat | HIV-1 TAR RNA, Tat peptide displacement FRET; stronger effect = higher value | z-score (no concentration beside the values) | hit rate 0.6% among 100,000;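 also: score is relative to mean and SD of negative controls; some compounds called inactive have numbers as strong as hits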
# Starred values were filed as active, the others as inactive; x = not tested or not shown.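 The calls were made as follows: active = z-score from 3 up in half or more of its runs; inactive = the rest.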 Not a hit list; 0.87% or so of the library scored in one or more.
Compound,CDC25B-CDK2 inh,TAR Tat displ
CCOC(=O)c1[nH]c(C)c(CN(CC2CCCO2)C(=O)CC(C)C)c1C (configuration not stated),x,0.69
CSc1nsc(SCC(=O)NCc2ccco2)n1,-0.41,0.04
O=C(Nc1cccnc1)C1COc2ccccc2O1 (configuration not stated),-0.92,2.5
Cc1cccc(NS(=O)(=O)c2cc(-c3cnc(C4CC4)o3)ccc2C)c1,x,1.2
C=CCN(CC=C)S(=O)(=O)c1ccc(C(=O)Nc2nc3ccc(S(N)(=O)=O)cc3s2)cc1,-2.7,x
CCOC(=O)N1CCN(C(=O)c2ccc(CS(=O)(=O)c3ccc(Br)cc3)o2)CC1,0.51,0.06
COCCN1C(=O)c2oc3ccc(F)cc3c(=O)c2C1c1ccc(C(=O)OC)cc1 (configuration not stated),-1.3,-0.14
O=C(CSc1cn(CCNC(=O)c2c(F)cccc2F)c2ccccc12)Nc1nccs1,-0.82,1.2
CCC1COC(c2cccn2Cc2ccccc2Cl)=N1 (configuration not stated),x,1.1
COc1ccc(NC(=O)c2sc3nc(N4CCCC4)c4c(c3c2N)CCCC4)cc1,-0.67,-0.33
CCCNS(=O)(=O)c1ccc2c(c1)NC(=O)CS2,x,3.9
CCCn1c(NCC)nc2c1c(=O)n(C)c(=O)n2C,-0.72,x
CCCOC(=O)C1=C(C)NC2=C(C(=O)CCC2)C1c1ccc(C)cc1 (configuration not stated),0.38,1
CCOc1ccc(-n2c(C)cc(CO)c2C)cc1,-0.3,-1.6
Cc1cc(NC(=O)CN2CCCC2)no1,-1.8,x
CC(C)Nc1nc2c(-c3cccc(Br)c3)nnn2c2ccccc12,-1.3,1.5
CCOC(=O)c1sc(N)nc1C(F)(F)F,x,-0.21
COC(=O)C1=C(C)NC2=C(C(=O)CC(C)(C)C2)C1c1ccccc1Cl (configuration not stated),-0.58,-1.4
O=C(CSc1ccc2nnc(-c3ccc(Cl)cc3)n2n1)Nc1ccc(F)cc1,-2.8,x
Cn1c(=O)c2c(-c3ccccc3)n3c4ccccc4nc(-c4ccncc4)c3c2n(C)c1=O,-0.51,0.87
COc1ccccc1-c1cc(C(=O)Nc2cccc(O)c2)no1,1.4,x
O=c1[nH]ccn(-c2ccc(F)cc2)c1=O,-0.28,1.4
Cc1nn(-c2ccccc2)c(-n2cccc2)c1C(=O)N1CCCC1,-1.8,2.8
Fc1cc(F)cc(-c2noc3ncnc(NCCCN4CCOCC4)c23)c1,x,1.6
Cn1c(-c2ccc(F)cc2)cn2cc(-c3ccc(Br)cc3)nc12,-1.5,2.2
COc1cccc(C2CC(c3ccc(OCc4ccccc4)cc3)n3nc(N)nc3N2)c1 (configuration not stated),-0.99,0.52
CCOC(=O)c1cc(-c2ccc(S(=O)(=O)NCCc3ccco3)s2)on1,x,0.67
CCCC1Nc2ccccc2S(=O)(=O)N1 (configuration not stated),x,-0.55
COCCn1c(SCc2ccccn2)nc2c([nH]c3ccccc32)c1=O,x,2.2
Cc1ccc(CNC(=O)c2cnc3sc(N4CCC(C)CC4)nn3c2=O)o1,x,0.72

# Four compounds out of the list, sorted by formula weight, rising.
Compound,CDC25B-CDK2 inh,TAR Tat displ
CCC1COC(c2cccn2Cc2ccccc2Cl)=N1 (configuration not stated),x,1.1
CC(C)Nc1nc2c(-c3cccc(Br)c3)nnn2c2ccccc12,-1.3,1.5
COCCN1C(=O)c2oc3ccc(F)cc3c(=O)c2C1c1ccc(C(=O)OC)cc1 (configuration not stated),-1.3,-0.14
O=C(CSc1ccc2nnc(-c3ccc(Cl)cc3)n2n1)Nc1ccc(F)cc1,-2.8,x

# The main list resumes; the 6 compounds before the break are reprinted first.
Compound,CDC25B-CDK2 inh,TAR Tat displ
Cn1c(-c2ccc(F)cc2)cn2cc(-c3ccc(Br)cc3)nc12,-1.5,2.2
COc1cccc(C2CC(c3ccc(OCc4ccccc4)cc3)n3nc(N)nc3N2)c1 (configuration not stated),-0.99,0.52
CCOC(=O)c1cc(-c2ccc(S(=O)(=O)NCCc3ccco3)s2)on1,x,0.67
CCCC1Nc2ccccc2S(=O)(=O)N1 (configuration not stated),x,-0.55
COCCn1c(SCc2ccccn2)nc2c([nH]c3ccccc32)c1=O,x,2.2
Cc1ccc(CNC(=O)c2cnc3sc(N4CCC(C)CC4)nn3c2=O)o1,x,0.72
O=C(CC1NCCN(Cc2ccccc2)C1=O)N/N=C/c1cc(Cl)cc(Cl)c1O (configuration not stated),-1.4,x
CN(C)S(=O)(=O)N1CCC(c2ccncc2)CC1,x,1.5
O=C(O)c1cc([N+](=O)[O-])c(Br)s1,-0.79,x
CCC(Sc1nc2ccccc2s1)C(=O)Nc1ccc(S(N)(=O)=O)cc1 (configuration not stated),0.22,x
COCCCNC(=O)C1CCCN(S(=O)(=O)N2CCOCC2)C1 (configuration not stated),x,-0.91
CCN(C(=O)CSc1nc2ncccc2o1)c1ccccc1,x,0.76
O=C(Nc1ccc2c(c1)OCCO2)c1nc2ccccc2nc1Cl,-2.5,1.1
O=C(Cn1ccc2cc(S(=O)(=O)N3CCCCC3)ccc21)N1CCOCC1,x,-0.08
CC1(C)C=Cc2cc(C3=C(O)/C(=C/c4ccc5c(c4)C[C@H](C(C)(C)O)O5)OC3=O)c(O)cc2O1,x,2.8
CC(C)CC(C(=O)Nc1ccccn1)N1Cc2ccccc2C1=O (configuration not stated),x,1.1
O=C(NCCN1CCCc2ccccc21)c1cc(-c2ccccn2)nc2ccccc12,x,0.34
O=C(CC1NC2CCCCC2NC1=O)Nc1ccc2c(c1)OCCO2 (configuration not stated),-0.41,x
O=C(CSc1cn(CC(=O)N2CCCC2)c2ccccc12)Nc1ccc(F)cc1,x,-0.96
CC1Cc2ccccc2N1C(=O)CN1C(=O)CSc2ccc(S(=O)(=O)N3CCCC3)cc21 (configuration not stated),x,-0.1
COC(=O)C1=C(C)N=c2s/c(=C/c3ccc(-c4cccc([N+](=O)[O-])c4)o3)c(=O)n2C1c1ccc(OC(C)=O)cc1 (configuration not stated),-2.9,x
N#Cc1cccnc1NNC(=O)CC1(CC(=O)O)CCCC1,-1.1,x
CC1=C(c2ccc(C)cc2)S(=O)(=O)N=C1N1CCN(Cc2ccccc2)CC1,-0.5,-0.47
CCn1c(SCC(=O)NCC2CCCO2)nc2c(c1=O)SCC2 (configuration not stated),-1.2,-0.63
COc1ccc(-c2n(C)c3ccccc3[n+]2C)cc1,0.65,-1.9
COc1ccc(-c2nc(SCc3cc(=O)n4nc(C5CC5)sc4n3)n[nH]2)cc1,x,-0.45
O=C(C(=O)N1CCc2ccccc2C1)c1cn(CC(=O)N2CCCC2)c2ccccc12,x,1.2
O=C(Cn1c(=O)c2cccn2c2ccc(F)cc21)NCCCN1CCC(N2CCCCC2)CC1,x,1.5
COc1ccc(C2CC(c3ccccc3)Nc3nnnn32)cc1 (configuration not stated),x,1.4
CCN(CC)C(=O)CSc1nc2c(sc(=S)n2Cc2ccco2)c(=O)n1-c1ccccc1,x,-0.05
COCCn1c(SCC(=O)N2CCCCC2)nc2c(c1=O)SCC2,-0.89,0.3
COC(=O)c1c(NC(=O)Cn2nc(C)c([N+](=O)[O-])c2C)sc2c1CCCC2,-0.43,0.91
CCc1cc2c(SCC(=O)c3ccccc3)ncnc2s1,-1,-0.22
CC(=O)N1c2ccc(S(=O)(=O)NCc3ccco3)cc2CC1C (configuration not stated),x,0.6
CNc1nsc(C(=O)c2ccc(F)cc2)c1N,-3,1.1
O=S1(=O)CCC(S(=O)(=O)N2CCN(c3ccccc3)CC2)C1 (configuration not stated),-0.83,1.6

# Next section.
Compound,CDC25B-CDK2 inh,TAR Tat displ
O=C1CC(c2ccccc2Br)C2=C(CCCC2=O)N1 (configuration not stated),-0.8,-0.05
CC(C)(C)C(=O)OCc1noc(-c2ccc(Cl)c(Cl)c2)n1,-2.2,x
O=C(COc1cccc2cccnc12)N1CCc2ccccc21,-0.41,0.83
Cc1csc2nc(COC(=O)c3ccco3)cc(=O)n12,x,0.59
Cc1ccc2nc(S/C=C/C(=O)c3ccc(Cl)cc3)[nH]c2c1,-2,x
CC(=O)NC1C(=O)N(C)c2ccc(Cl)cc21 (configuration not stated),-0.77,-2.3
CC(=O)O[C@H]1C[C@@H](OC(C)=O)C(C)(C)C2C[C@@H](OC(C)=O)[C@@]3(C)C4=CC(=O)O[C@@H](c5ccoc5)[C@]4(C)CCC3[C@]21C (some centres not stated),x,2.9
COc1ccc(C)cc1-n1nnc(-c2nc(-c3ccncc3)no2)c1N,x,-0.02
Cc1nnc(SCCCn2c(N3CCOCC3)nc3c2c(=O)[nH]c(=O)n3C)s1,1.1,0.75
CCOc1ccc(C(Nc2cc(C)ccn2)c2ccc3cccnc3c2O)cc1OC (configuration not stated),-0.51,1.2
CCN(CC)S(=O)(=O)c1ccc2c(c1)NC(=O)C1CCCN21 (configuration not stated),-1.2,-1.4
CC(C)CN(CC(C)C)S(=O)(=O)c1ccc(CN2C(=O)c3cccnc3C2=O)cc1,x,0.12
C1=C(CCNc2nc3ccccc3n3cnnc23)CCCC1,-0.5,-0.37
O=C(NC1CCCCC1)C1CCN(c2nn3c(=O)c4c(nc3s2)CCCC4)CC1,x,-0.82
CN1c2ccsc2C(=O)/C(=N\Nc2cccc(C(F)(F)F)c2)S1(=O)=O,-1.8,x
O=C1CCc2cc(S(=O)(=O)NCc3ccco3)cc3c2N1CCC3,x,2.5
CCCn1c(C)nc2cc(C)c(C)cc21,-2.1,-0.54
CCOC(=O)C1CCCN(S(=O)(=O)c2ccc(-c3ccc(N4CCOCC4)nn3)s2)C1 (configuration not stated),x,3.3
COc1cc(OC)c(Nc2cc(C)nc3nnnn23)cc1Cl,-1.6,0.22
CCCNc1nc(CC)nc2c(-c3ccc(C)cc3)noc12,x,0.62
CCOc1cc2nc3c4ccccc4n(C(C)C)c3nc2cc1OCC,0.03,0.11
CC1CSc2ccc(S(=O)(=O)N(Cc3cccs3)C3CCCCC3)cc2NC1=O (configuration not stated),x,1.5
N#Cc1nn(-c2ccccc2)nc1N1CCCCC1,-0.32,-0.97
Brc1cccc(-c2nn3c(Cn4cnc5ccccc54)nnc3s2)c1,-2.2,2
O=c1[nH]c2scc(-c3ccccc3)c2c(=O)n1-c1cccc(Cl)c1,-4.3,x
O=C(Cn1nc(-c2ccc(Cl)cc2)c2ccccc2c1=O)NCC1CCCO1 (configuration not stated),-1.9,2.7
COc1ccc(S(=O)(=O)c2nnn(-c3cccc(OC)c3)c2C)cc1,-0.26,2.3
Cc1ccc(S(=O)(=O)c2nc(S(C)(=O)=O)sc2N2CCN(C)CC2)cc1,-2.4,0.96
O=C(Nc1ccccc1Cl)C1CCN(C(=O)N2CCOc3ccccc32)CC1,x,1.6
CC1=NN(c2ccc([N+](=O)[O-])cc2)C(=O)C1[N+](=O)[O-] (configuration not stated),1.2,x

# (continued)
# The line under a structure holds: CDC25B-CDK2 inh, TAR Tat displ
O=C(O)CCCN1C(=O)c2ccccc2C1=O
  -1.8, x
O=C(Cn1nnc2sc3c(c2c1=O)CCCC3)Nc1ccc(F)c(Cl)c1
  1.2, 1.3
COCCCNc1ncnc2onc(-c3cc(F)cc(F)c3)c12
  x, 1.5
O=C1CCCc2cc(S(=O)(=O)N3CCCC3)ccc2N1
  x, 0.7
CCc1ccc(Nc2c3c(nc4ncnn24)CCC3)cc1
  -1.1, 1.9
COc1ccc(-n2ccn3c(=O)[nH]nc3c2=O)cc1
  -0.51, -0.81
CCN(CC)S(=O)(=O)c1ccc2c(c1)N(CC(=O)NC1CCCCC1)C(=O)C1CCCCN21 (configuration not stated)
  x, 0.91
CCC(C)n1c(=O)c2sccc2n2c(CCCC(=O)N3CCC(C(N)=O)CC3)nnc12 (configuration not stated)
  x, 0.63
O=C(c1noc2c1CCCCC2)N1CCN(c2ccccc2)CC1
  1.2, 0.71
O=C1Nc2cc(C(=O)N3CCN(c4ccccn4)CC3)ccc2N2CCCCC12 (configuration not stated)
  x, 0.42
Cc1nc2ncnn2c(C)c1CCC(=O)Nc1cnc2ccccc2c1
  -2.6, 1.6
COC(=O)c1cc(COc2ccc3c4c(c(=O)oc3c2C)CCCC4)c(C)o1
  1, x
O=C(Sc1ccccn1)c1cnn(-c2ccc([N+](=O)[O-])cc2)c1C(F)(F)F
  -1.2, x
CCCC1CC(C)(C(=O)Cn2[nH]c(=O)ccc2=O)OC1=O (configuration not stated)
  1.1, x
CC(C)(C)NC(=O)c1oc2ccccc2c1NC(=O)COc1ccccc1
  x, 1.2
COc1ccc(OC)c(S(=O)(=O)NCc2cn3cccc(C)c3n2)c1
  -0.09, x
CC1=C2C(=NCCN1)C(=O)N(c1ccccc1)C2c1cccnc1 (configuration not stated)
  0.62, -6
CCOC(=O)c1c(C)[nH]c(NC(=O)Nc2ccc(OC)cc2)c1C
  -0.65, 1.2
COc1cc(NC(=O)CSc2nnc(C)n3c2cc2oc(C)cc23)cc(OC)c1
  x, 0.92
CC(=O)c1sc(-c2cccs2)cc1N
  -1.5, x
CCCNC(=O)C1CCCN(S(=O)(=O)c2ccc3c(c2)CC(C)N3C(=O)C2CC2)C1 (configuration not stated)
  x, -0.53
CCOc1ccc(-n2cnnn2)cc1
  -0.03, 0.34
